Mtb bLac sens: beta-lactam sensitization of Mtb H37Rv; AID 434955; inhibition, % at 25 µM; M. tuberculosis H37Rv growth with meropenem, percent inhibition; hits of this screen are not shown here; hit rate 0.27% among 330,000;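 active = about 74% or more and at least 40 points above the plate without the antibiotic, then above 30% in a dose series; inconclusive = first-round hits that could not be retested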;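 also: growth measured after seven days incubation then overnight dye step; 0% = bacteria only wells and 100% = bacteria with antibiotic; twin plates without the antibiotic show which effects depend on it; some results filed as inactive read as strong as hits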
Numbers without * were called inactive; ? = inconclusive. A portion of the library (hit frequency here may not be typical).

No.	Molecule	Mtb bLac sens
1	O=C(NCC1CCCCC1)c1ccc(F)c(S(=O)(=O)N2CCOCC2)c1	-5
2	COc1cccc(C#Cc2c(CO)[nH]c3ccccc23)c1	21
3	C/C(=N\O)c1ccco1	2
4	COc1ccc(OC)c(/C=C/C(=O)OCC(=O)NCc2ccccc2)c1	-1
5	COc1cc(OC)cc(-c2c(-c3cccs3)c3cc(-c4ccc(OC)nc4)ccc3n2C)c1	74
6	CC(C)C[C@H](NP(=O)(O)O[C@@H]1O[C@@H](C)[C@H](O)[C@@H](O)[C@H]1O)C(=O)N[C@@H](Cc1c[nH]c2ccccc12)C(=O)O	-1
7	Cc1ccccc1C(=O)N1CCC(C(=O)N(CC(C)C)c2c(N)n(CC(C)C)c(=O)[nH]c2=O)CC1	5
8	COc1cccc2sc3cc(C#Cc4ccccn4)ccc3c(=O)c12	1
9	CCCCNc1nnc(SCC(=O)c2c(N)n(C3CC3)c(=O)[nH]c2=O)s1	-12
10	O=C(COC(=O)c1ccc[nH]c1=O)NCCC1=CCCCC1	3
11	Cc1ccc(C)c(NC(=O)CN(C)C(C)C(=O)N2CCCC2)c1 (centres undefined)	-2
12	COC(=O)c1c(-c2ccc(OC)cc2)sc2ccc(OC)cc12	53
13	O=C(Nc1ccc(Cl)cc1)Nc1ccc(Cl)c(Cl)c1	93
14	Cc1ccc(OCCOCCN2CCN(C)CC2)c(C(C)(C)C)c1	-3
15	O=C(OCc1c(-c2ccccc2)ncc2ccccc12)c1cccc(Br)c1	22
16	Cc1ccc(C(=O)Nc2ccn(C)n2)cc1	-3
17	C/C(=N\NC(=O)c1ccoc1C)c1ccc(Br)s1	48
18	Cc1ccc(C)c(OCC(=O)NNC(=O)C2CC2)c1	-3
19	OCC[C@H]1C[C@@H](O)[C@H](O)[C@@]2(CCc3ccccc3CO2)O1	-4
20	Cc1noc(C)c1NC(=O)Nc1cccc2c1O[C@H](CN(C)S(=O)(=O)c1cn(C)cn1)[C@@H](C)CN([C@H](C)CO)C2=O	-3

Two of the compounds above, as labelled records.
20. Cc1noc(C)c1NC(=O)Nc1cccc2c1O[C@H](CN(C)S(=O)(=O)c1cn(C)cn1)[C@@H](C)CN([C@H](C)CO)C2=O
  Mtb bLac sens: -3

10. O=C(COC(=O)c1ccc[nH]c1=O)NCCC1=CCCCC1
  Mtb bLac sens: 3

The list goes on.
No.	Molecule	Mtb bLac sens
21	CCCCN1C(Nc2ccccc2)=NC[C@@H]1Cc1ccccc1	-6
22	Cc1cc(C(=O)COC(=O)Cc2ccc(Cl)cc2)c(C)n1C	30
23	Cn1ccnc1SCC(=O)NCC(=O)Nc1ccc(F)c(F)c1F	3
24	O=S(=O)(c1cccc(-c2n[nH]c(=S)n2-c2cccc(C(F)(F)F)c2)c1)N1CCOCC1	-5
25	CC1CCCC(C)N1C(=O)COC(=O)/C=C/c1ccco1 (centres undefined)	7
26	CC(C)c1ccc(OCC(=O)NN2C(=O)c3ccccc3C2=O)c(Br)c1	-4
27	COc1ccc(N2CCN(C(CNS(=O)(=O)c3ccc(C)cc3)c3ccccc3)CC2)cc1 (centres undefined)	-1
28	COc1ccc(CNC(=O)COC(=O)c2ccc(Br)c(S(=O)(=O)N3CCOCC3)c2)cc1	3
29	CN(C)c1cccc(C(=O)NN2C(=O)NC3(CCCCC3)C2=O)c1	-5
30	COc1ccc(S(=O)(=O)N2CCOCC2)cc1NC(=O)c1cc(C)oc1C	-10
31	Cc1noc(C)c1NC(=O)N(C)C[C@@H]1Oc2ccc(NC(=O)C3CCCCC3)cc2C(=O)N([C@@H](C)CO)C[C@H]1C	-1
32	CN1CCC(N(C)C(=O)c2cc(S(=O)(=O)N(C)c3ccccc3)ccc2Cl)CC1	7
33	C[C@@]12C(=O)Nc3cc(Cl)ccc3C(=O)N1[C@H]1c3cc(Br)ccc3OC[C@@H]1[C@@H]2c1ccccc1	98
34	C=CCn1c(SCC(=O)Nc2sc3c(c2C#N)CCC(C)C3)nc2cc(C(=O)O)ccc2c1=O (centres undefined)	2
35	COc1ccc2c(C(=O)NCCCCO)c(-c3ccc(S(C)(=O)=O)cc3)sc2c1	-8
36	O=C(COC(=O)CCNS(=O)(=O)c1ccccc1)NC1CC1	-7
37	O=C1CN(S(=O)(=O)c2cc(C(F)(F)F)ccc2Cl)CCN1	-5
38	CCn1c2ccc(C)cc2c2n[nH]c(=S)nc21	0
39	O=C1CSc2ccc(C(=O)NCc3ccccn3)cc2N1	4
40	COc1ccc(CC(=O)Nc2cc(S(=O)(=O)Nc3ccc(OC)cc3)ccc2OC)cc1	-9
41	CC(C)C[C@]1(c2ccccc2)ON(c2ccccc2C(F)(F)F)C1=O	-4
42	COc1ccc(C(=O)N/N=C/c2ccc(N3CCOCC3)s2)cc1OC	-8
43	Cc1ccc(NC(=O)CSc2ccc(S(=O)(=O)N3CCCC3)cn2)cc1F	10
44	COc1ccc(NC(=O)C2COc3ccccc3O2)cc1S(=O)(=O)N1CCOCC1 (centres undefined)	-10
45	COc1ccc(F)cc1COc1nc(C)nc2ccccc12	-1
46	O=C(Nc1ccccc1N1CCOCC1)c1cccc(S(=O)(=O)Nc2ccccc2F)c1	1
47	C#CCOCCOCCOCCNc1nc(N2CCN(C(=O)CCCCCCCCCCNC(=O)[C@H](CO)n3cc(CCCSC)nn3)CC2)nc(N2CCN(C(=O)CCCCCCCCCCNC(=O)[C@H](CCCN=C(N)N)n3cc(C[C@@H](C)CC)nn3)CC2)n1	100
48	COc1ccc(S(=O)(=O)N(C)C)cc1NC(=O)CSC(C)C(=O)Nc1cc(C)on1 (centres undefined)	1
49	C=CC[C@@H](CC(=O)N(CCO)Cc1ccccc1)C(=O)N[C@H](COC(=O)[C@@H](CC=C)CC(=O)OC(C)(C)C)C(C)(C)C	6
50	COC(=O)c1ccccc1S(=O)(=O)N1CCC(C(=O)NCc2ccco2)CC1	0
51	CC(NC(=O)c1cccc(S(=O)(=O)N(C)c2ccccc2)c1)c1cccnc1 (centres undefined)	0
52	O=C(c1ccncc1)N1CCN(S(=O)(=O)c2ccc(F)cc2)CC1	-6
53	COc1ccc([C@H]2CC(=O)C=C(c3cccc(OC)c3OC)C2)cc1OC	8
54	O=C(Cn1nc(C(=O)O)c2ccccc2c1=O)Nc1cccc(S(=O)(=O)N2CCCCCC2)c1	-1
55	COc1ccc(NC(=O)N(C)C[C@H]2Oc3c(NS(=O)(=O)c4ccc(F)cc4)cccc3C(=O)N([C@H](C)CO)C[C@@H]2C)cc1	10
56	Cc1cc(S(=O)(=O)NC[C@H]2O[C@@H](n3cnc4c(N)ncnc43)[C@H](O)[C@@H]2O)c(C)s1	-9
57	COc1ccc(NC(=O)CSc2nnc(C)n2C2CC2)cc1S(=O)(=O)N1CCOCC1	4
58	CN(C(=O)CSc1n[nH]c(N)n1)C1CCCCC1	-5
59	Cc1ccc(S(=O)(=O)Nc2ccc(C(=O)NCCCn3ccnc3)cc2)cc1[N+](=O)[O-]	-4
60	COc1ccc(S(=O)(=O)Nc2ccc3c(c2)C(=O)N([C@H](C)CO)C[C@H](C)[C@@H](CN(C)C(=O)Nc2c(C)noc2C)O3)cc1	7

Single values from above:
entry 60 in Mtb bLac sens = 7
entry 50 in Mtb bLac sens = 0

Continuation:
No.	Molecule	Mtb bLac sens
61	COc1ccc(S(=O)(=O)N2CCN(CC(O)CN3CCOCC3)CC2)cc1 (centres undefined)	-8
62	COc1ccc(C(CNS(=O)(=O)c2ccc(NC(C)=O)c(OC)c2)N2CCCC2)cc1 (centres undefined)	-11
63	CCOc1ccc(N(CC(=O)N2CCCCCC2)S(=O)(=O)c2ccc(C)cc2)cc1	?
64	C=C(Cl)CSC(=S)N(CC)CC	12
65	CSCCC1NC(=O)N(CC(=O)Nc2cc(C)on2)C1=O (centres undefined)	-4
66	Cc1ccc(C)c(NC(=O)CSc2nc(C)cs2)c1	2
67	O=C(COC(=O)CCC(=O)c1cccs1)NCCc1ccccc1	-7
68	CC(C)NC(=O)N(C)C[C@H]1Oc2c(cccc2N(C)C)C(=O)N([C@H](C)CO)C[C@@H]1C	-5
69	O=C(C1CCN(S(=O)(=O)c2ccccc2F)CC1)N1CCc2ccccc21	-1
70	C[C@H](CO)N1C[C@H](C)[C@@H](CN(C)S(=O)(=O)c2cccs2)Oc2ccc(NC(=O)Cn3cnnn3)cc2C1=O	0
71	C[C@@H]1CN([C@H](C)CO)C(=O)Cc2cc(NC(=O)CCC(F)(F)F)ccc2O[C@@H]1CN(C)C(=O)NC1CCCCC1	0
72	O=C(CSc1ncn[nH]1)Nc1ccc(Br)cc1Br	-4
73	CCO[C@H]1c2c(ccc3ccc(=O)oc23)OC(C)(C)[C@@H]1O	1
74	COc1cccc(C(=O)NCc2ccco2)c1OC	-3
75	OC(CN1CCN(c2cccc(Cl)c2)CC1)C(c1ccccc1)c1ccccc1 (centres undefined)	16
76	CCn1c(SCC(=O)Nc2ccc(N3CCOCC3)cc2)nnc1C1CC1	-3
77	O=C(Nc1ccc(NC(=O)c2ccc3c(c2)OCO3)cc1)c1cccc(Cl)c1	-4
78	c1ccc(-c2sc3ccccc3c2-c2ccc(OCCN3CCOCC3)cc2)cc1	8
79	Cc1ccc(OCCN(C)C(=O)C2CCC(=O)N(Cc3ccccc3F)C2)cc1 (centres undefined)	?
80	CC(C)(C)OC(=O)C[C@@H]1C/C=C\C[C@@H](CC(=O)N[C@@H](CO)Cc2ccccc2)C(=O)N2CCC[C@@H]2COC1=O	-8

Looked up by compound from the entries so far:
No.	Molecule	Mtb bLac sens
69	O=C(C1CCN(S(=O)(=O)c2ccccc2F)CC1)N1CCc2ccccc21	-1
64	C=C(Cl)CSC(=S)N(CC)CC	12
61	COc1ccc(S(=O)(=O)N2CCN(CC(O)CN3CCOCC3)CC2)cc1 (centres undefined)	-8
70	C[C@H](CO)N1C[C@H](C)[C@@H](CN(C)S(=O)(=O)c2cccs2)Oc2ccc(NC(=O)Cn3cnnn3)cc2C1=O	0
72	O=C(CSc1ncn[nH]1)Nc1ccc(Br)cc1Br	-4
67	O=C(COC(=O)CCC(=O)c1cccs1)NCCc1ccccc1	-7
63	CCOc1ccc(N(CC(=O)N2CCCCCC2)S(=O)(=O)c2ccc(C)cc2)cc1	?

(list continues)
No.	Molecule	Mtb bLac sens
81	CC(C(=O)Nc1ccc2c(c1)OCO2)N1CCC(N2CCCCC2)CC1 (centres undefined)	-9
82	CCOc1ncccc1C(=O)OC(C)C(=O)Nc1ccc(N2CCOCC2)cc1 (centres undefined)	-4
83	C[C@H]1CN=C(Nc2ccccc2)N1CCc1ccccc1	0
84	O=C(c1cccc(S(=O)(=O)NCc2ccccc2)c1)N1CCN(c2ccc(F)cc2)CC1	-3
85	COc1ccc(CCC(=O)Nc2ccc(OC)c(S(=O)(=O)N3CCCCC3)c2)cc1	-6
86	O=C(COC(=O)c1cncc(Br)c1)NCc1cccs1	-1
87	CCCCN1C(=O)C(=O)N(CC(=O)Nc2sc(C)c(C)c2C(=O)OC)C1=O	-3
88	COC1=C(C)C(=O)O[C@]12C(=O)C(C)=C1CCCCN3[C@H]([C@@H]4C[C@H](C)C(=O)O4)CC[C@]132	-1
89	Cc1ccc(NC(=O)CCCc2nc3ccccc3c(=O)[nH]2)c(Cl)c1	0
90	CSc1ccccc1NC(=O)COC(=O)c1cnc(C)cn1	-3
91	Cn1c(N)c(C(=O)COC(=O)c2ccc3ccccc3c2)c(=O)n(C)c1=O	-4
92	CCN(CC)S(=O)(=O)c1cccc(C(=O)NC(C(=O)NCCc2ccccn2)C(C)C)c1 (centres undefined)	1
93	Cc1ccc(N2CC(C(=O)N(C)CC(=O)Nc3ccc(Cl)c(C(F)(F)F)c3)CC2=O)cc1 (centres undefined)	11
94	O=C(Nc1nc2ccccc2[nH]1)c1ccc(OC(F)F)cc1	96
95	CNC(=O)[C@H]1O[C@@H](n2cnc3c(NCc4cccc(I)c4)ncnc32)[C@H](O)[C@@H]1O	-1
96	CCCn1nc(C(=O)Nc2cc(S(=O)(=O)Nc3ccc(OC)cc3)ccc2O)c2ccccc2c1=O	-5
97	N#Cc1ccc(C(=O)OCC(=O)Nc2cccnc2Cl)cc1	-2
98	CCN(C(=O)COc1cc(OC)ccc1C(C)=O)C1CCS(=O)(=O)C1 (centres undefined)	2
99	COc1ccc(C(=O)NC(C)c2cccnc2)cc1S(=O)(=O)N(C)Cc1ccccc1 (centres undefined)	-2
100	CCOC(=O)[C@H]1[C@H]2COc3ccc(Br)cc3[C@@H]2N2C(=O)c3cc(Br)ccc3NC(=O)[C@@]12C	89
101	C[C@@H]1CN([C@@H](C)CO)C(=O)Cc2cc(NC(=O)Nc3ccc4c(c3)OCO4)ccc2O[C@@H]1CN(C)C(=O)NC1CCCCC1	-2
102	COc1cccc(NC(=O)CN(C)C(=O)C(CCSC)NC(=O)c2ccco2)c1 (centres undefined)	2
103	Cc1ccc(C(=O)Nc2ccc(F)c(S(=O)(=O)N3CCOCC3)c2)s1	2
104	C[C@H]1COC(=O)[C@@H](Cc2ccc(F)cc2)C/C=C\C[C@@H](CC(=O)NCCO)C(=O)N1	-9
105	Cc1ccc(S(=O)(=O)CC(=O)N2CCN(c3ccc([N+](=O)[O-])cc3)CC2)cc1	-3
106	Cn1c(N)c(C(=O)COC(=O)/C=C/c2cccc(Br)c2)c(=O)n(C)c1=O	0
107	CCN(C[C@H]1N[C@@](Cc2ccccc2)(C(=O)OC)[C@H]2C(=O)N(C)C(=O)[C@@H]12)S(=O)(=O)c1ccccc1	1
108	CCN(CC)S(=O)(=O)c1cc(NC(=O)CSCc2c(C)noc2C)ccc1C	1
109	CC(C)c1ccc(N(CC(=O)NCc2ccco2)C(=O)CCC(=O)Nc2ccccn2)cc1	-5
110	Nc1c(C(=O)CSc2nccn2-c2ccc(Cl)cc2)c(=O)[nH]c(=O)n1C1CC1	-6
111	COCCn1c(C)cc(C(=O)COc2ccc(N(C)S(=O)(=O)c3ccc(C)cc3)cc2)c1C	0
112	COC(=O)[C@]1(C)N[C@H](CN(C)C(=O)c2ccc(F)cc2)[C@@H]2C(=O)N(C)C(=O)[C@@H]21	-6
113	CCOc1ccc(C=NNc2ccc(S(=O)(=O)Nc3ccccc3C(=O)O)cc2[N+](=O)[O-])cc1	4
114	CCOCCCNC(=O)Cn1cnc2c(cnn2-c2ccc(OC)cc2)c1=O	-3

Screening results (PubChem BioAssay)
